AF4-AF9 inh = inhibitors of human MLL-AF4/AF9 interaction. P42568. AlphaScreen, biotin-AF4 peptide binding to FLAG-AF9. inhibition, % at 10 µM. actives 0.47% (n = 350,000);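 active means every replicate reaching a set inhibition limit, whatever the replicate mean, cut at about 25% in these data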;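 further: 0% = plate neutral control median and 100% = total signal loss; the record names both 10 and 1 µM as test concentration; the first replicate is given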
Target sequence (P42568 whole entry, looked up): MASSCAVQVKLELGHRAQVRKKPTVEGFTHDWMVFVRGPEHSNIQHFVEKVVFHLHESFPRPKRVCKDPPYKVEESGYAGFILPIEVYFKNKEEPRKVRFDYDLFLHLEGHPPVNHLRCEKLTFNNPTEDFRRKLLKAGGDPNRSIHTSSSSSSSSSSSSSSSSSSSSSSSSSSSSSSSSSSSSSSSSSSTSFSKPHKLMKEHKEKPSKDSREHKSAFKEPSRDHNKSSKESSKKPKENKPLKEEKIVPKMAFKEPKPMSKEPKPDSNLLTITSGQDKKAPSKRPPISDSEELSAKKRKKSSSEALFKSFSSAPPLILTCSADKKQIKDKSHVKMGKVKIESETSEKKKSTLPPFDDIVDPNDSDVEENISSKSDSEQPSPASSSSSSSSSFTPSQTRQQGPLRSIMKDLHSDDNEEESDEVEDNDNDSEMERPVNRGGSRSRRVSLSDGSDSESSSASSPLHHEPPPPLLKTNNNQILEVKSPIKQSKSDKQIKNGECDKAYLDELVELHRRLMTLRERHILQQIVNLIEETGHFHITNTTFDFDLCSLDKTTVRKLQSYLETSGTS
FGF22 binding = FGF22 (human) thermal shift binding; recombinant FGF22 thermal shift, SYPRO orange fluorescence; percent of sucrose octasulfate shift, DMSO zero; AID 651658; Q9HCT0; calls only at 9.99 µM; actives 1.5% (n = 340,000);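 active means melting point raised past a set limit in the mean and every replicate; three in four hits are not shown here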
Target sequence (Q9HCT0 whole entry, looked up): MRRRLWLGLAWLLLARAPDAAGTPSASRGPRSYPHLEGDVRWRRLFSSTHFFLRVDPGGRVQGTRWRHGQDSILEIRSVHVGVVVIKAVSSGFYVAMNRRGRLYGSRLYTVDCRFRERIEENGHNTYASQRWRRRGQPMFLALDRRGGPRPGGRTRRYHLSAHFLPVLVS
* = called active by the depositor; i = inactive. This is a subset; the hit share may differ from the screen's.

Below each SMILES: AF4-AF9 inh, FGF22 binding
[1] COc1cccc(CNC(=O)C[C@@H]2CC[C@@H](NC(=O)C3CCC3)[C@H](CO)O2)c1
→ 2.7, i
[2] CN1[C@@H]2Cn3c(ccc(-c4ccncc4)c3=O)[C@H]1[C@@H](C(=O)NCCc1ccccc1)[C@@H]2CO
→ 0.0, i
[3] O=C(N[C@@H]1CC[C@H](CCn2cc(-c3ccccn3)nn2)O[C@@H]1CO)c1ccccc1
→ -1.1, i
[4] C[C@H](CO)N1C[C@H](C)[C@H](CN(C)Cc2ccc(C(=O)Nc3ccccc3N)cc2)Oc2c(NC(=O)Nc3ccc4c(c3)OCO4)cccc2C1=O
→ 4.6, i
[5] C[C@H]1CN([C@@H](C)CO)C(=O)Cc2cc(NS(=O)(=O)c3ccc(F)cc3)ccc2O[C@H]1CN(C)C(=O)NC1CCCCC1
→ -1.5, i
[6] CO[C@@H]1CN(C)C(=O)c2cc(NS(=O)(=O)c3cccc(F)c3)ccc2OC[C@H](C)NC[C@H]1C
→ -3.1, i
[7] C[C@H](CO)N1C[C@H](C)[C@@H](CN(C)C(=O)C2CCOCC2)Oc2ncc(/C=C/c3ccccc3)cc2C1=O
→ -5.4, i
[8] Cc1ccc(S(=O)(=O)Nc2ccc3c(c2)C(=O)N([C@H](C)CO)C[C@@H](C)[C@@H](CN(C)S(=O)(=O)c2ccc(F)cc2)O3)cc1
→ -0.6, i
[9] CCNC(=O)C[C@@H]1CC[C@H]2[C@@H](COC[C@@H](O)CN2C(=O)Nc2ccc(Cl)c(Cl)c2)O1
→ -0.9, i
[10] C[C@H](O)C#Cc1cnc2c(c1)C(=O)N([C@@H](C)CO)C[C@@H](C)[C@H](CN(C)C(=O)CC1CC1)O2
→ 1.1, i
[11] CN(C)CC(=O)N[C@@H]1CC[C@H](CC(=O)NCc2ccccc2F)O[C@@H]1CO
→ -3.7, i
[12] C[C@@H]1CN([C@H](C)CO)C(=O)c2cc(-c3ccc(F)cc3)cnc2O[C@@H]1CN(C)Cc1ccccn1
→ -4.1, i
[13] N#C[C@H]1[C@@H](c2ccccc2-c2cccc(F)c2)[C@@H](CO)N1C(=O)C1CCOCC1
→ -0.3, i
[14] CC(C)NC(=O)Nc1cccc2c1O[C@H](CN(C)S(=O)(=O)c1ccc(Cl)cc1)[C@H](C)CN([C@@H](C)CO)C2=O
→ -1.2, i
[15] CN1C(=O)c2cc(NS(=O)(=O)c3ccccc3F)ccc2OC[C@@H]2O[C@@H](CC(=O)NC3Cc4ccccc4C3)CC[C@@H]21
→ 2.3, i
[16] CN1c2ccc(-c3ccc(C#N)cc3)cc2[C@H]2[C@H](CCN2C(=O)c2cccc(F)c2)[C@@H]1CO
→ -4.9, i
[17] C[C@@H]1CN([C@H](C)CO)C(=O)c2cc(C#Cc3ccccc3F)cnc2O[C@@H]1CN(C)C(=O)Cc1ccncc1
→ -0.3, i
[18] O=C(Nc1ccc(F)cc1)N1C[C@H]2[C@@H](c3ccccc31)[C@@H](CO)N2C(=O)c1ccccc1
→ 0.8, i
[19] C[C@H]1CN([C@@H](C)CO)C(=O)c2cccc(NC(=O)CCCCCC(=O)Nc3ccccc3N)c2O[C@@H]1CN(C)C(=O)Nc1ccc2c(c1)OCO2
→ 3.1, i
[20] COc1ccc(NC(=O)N(C)C[C@@H]2OCCCC[C@@H](C)Oc3ccc(NC(=O)NC(C)C)cc3C(=O)N([C@@H](C)CO)C[C@H]2C)cc1
→ -2.9, i
[21] COc1ccc(NC(=O)N(C)C[C@H]2Oc3c(NC(=O)NC(C)C)cccc3C(=O)N([C@@H](C)CO)C[C@H]2C)cc1
→ -8.2, i
[22] CO[C@@H](CN(C)Cc1cc(F)ccc1F)[C@H](C)CN([C@@H](C)CO)S(=O)(=O)c1ccc(F)cc1
→ -3.3, i
[23] C[C@H]1CN([C@@H](C)CO)S(=O)(=O)c2ccc(-c3ccccc3)cc2O[C@@H]1CN(C)C(=O)C1CCCCC1
→ 4.9, i
[24] O=C(Cc1ccccn1)N1CC(=O)N2[C@H](CO)[C@H](c3ccc(C#CCC4CCCC4)cc3)[C@@H]2C1
→ 3.3, i
[25] CO[C@@H]1CC[C@@H]2CCOc3ccc(C#N)cc3C(=O)N(C)[C@H](C)C(=O)N(C)C[C@H]1O2
→ -0.4, i
[26] COc1ccc(S(=O)(=O)Nc2cccc3c2O[C@H](CN(C)Cc2ccc(Oc4ccccc4)cc2)[C@H](C)CN([C@H](C)CO)C3=O)cc1
→ 0.7, i
[27] N#C[C@@H]1[C@H](c2ccccc2)[C@@H](CO)N1S(=O)(=O)Cc1ccccc1
→ -3.6, i
[28] COc1cccc(CNC(=O)C[C@H]2CC[C@H](NC(=O)C3CCOCC3)[C@@H](CO)O2)c1
→ 0.0, i
[29] Cc1ccc(S(=O)(=O)N2C[C@H](O)COC[C@H]3O[C@@H](CC(=O)NCCN4CCCCC4)CC[C@@H]32)cc1
→ -1.7, i
[30] COc1ccc(Oc2cccc3c2S(=O)(=O)N(C2CC2)C[C@@H](COCc2ccccc2)O3)cc1
→ -1.5, i

Further results follow:
Below each SMILES: AF4-AF9 inh, FGF22 binding
[31] Cc1ccccc1S(=O)(=O)N[C@H]1CC[C@@H](CCn2cc(-c3ccc(F)cc3)nn2)O[C@H]1CO
→ -3.5, i
[32] O=C(C[C@@H]1C=C[C@H](NS(=O)(=O)c2ccccc2)[C@@H](CO)O1)NCc1ccccc1F
→ -1.0, i
[33] C[C@@H]1CN([C@@H](C)CO)C(=O)Cc2cc(N(C)C)ccc2O[C@@H]1CN(C)S(=O)(=O)c1ccc(F)cc1
→ 2.8, i
[34] CO[C@@H]1CN(C)C(=O)c2ccc(NC(=O)C3CCCC3)cc2OC[C@@H](C)N(CCC(F)(F)F)C[C@H]1C
→ 1.6, i
[35] C[C@H]1CN([C@@H](C)CO)C(=O)c2cc(C3=CCCCC3)cnc2O[C@@H]1CN(C)C(=O)c1cccnc1
→ -3.0, i
[36] O=C(C[C@@H]1CC[C@H]2[C@@H](COC[C@H](O)CN2Cc2ccccc2)O1)N[C@H]1CCN(Cc2ccccc2)C1
→ -0.6, i
[37] CCCNC(=O)N(C)C[C@@H]1Oc2cc(Br)ccc2S(=O)(=O)N([C@@H](C)CO)C[C@@H]1C
→ 3.7, i
[38] CCC(=O)N1CC(=O)N2[C@@H](CO)[C@@H](c3ccc(C#Cc4cccnc4)cc3)[C@@H]2C1
→ -14.7, i
[39] C[C@@H]1CCCCO[C@H](CN(C)C(=O)Nc2cccc3ccccc23)[C@@H](C)CN([C@@H](C)CO)C(=O)c2cc(NC(=O)C3CCCCC3)ccc2O1
→ 0.3, i
[40] COc1cccc(S(=O)(=O)N[C@H]2CC[C@@H](CCn3cc(-c4ccc(F)cc4)nn3)O[C@H]2CO)c1
→ 1.2, i
[41] C[C@@H]1CN([C@@H](C)CO)S(=O)(=O)c2ccc(C#Cc3ccc(F)cc3)cc2O[C@H]1CN(C)S(C)(=O)=O
→ -1.7, i
[42] O=C(C[C@@H]1C[C@H]2c3cc(NC(=O)Nc4ccc(C(F)(F)F)cc4)ccc3O[C@H]2[C@H](CO)O1)NCc1ccccn1
→ 10.7, i
[43] C[C@@H]1CN([C@H](C)CO)C(=O)c2cc(C#CC3(O)CCCC3)cnc2O[C@H]1CN(C)Cc1cncnc1
→ -1.1, i
[44] C[C@@H]1CCCCO[C@H](CN(C)C)[C@H](C)CN([C@H](C)CO)C(=O)c2cc(NS(=O)(=O)c3ccc(F)cc3)ccc2O1
→ -4.1, i
[45] C[C@@H]1CN([C@H](C)CO)C(=O)c2cc(NC(=O)CCCN(C)C)ccc2O[C@@H]1CN(C)C(=O)Nc1ccc2c(c1)OCO2
→ 0.6, i
[46] COc1ccc(C(=O)Nc2ccc3c(c2)OC[C@@H](C)NC[C@@H](C)[C@@H](OC)CN(C)C3=O)cc1
→ -4.4, i
[47] CCC(=O)N1[C@H](CO)[C@H]2c3ccccc3N(C(=O)c3ccncc3)C[C@H]21
→ -4.1, i
[48] O=C(C[C@@H]1CC[C@H]2[C@@H](COC[C@H](O)CN2Cc2cccc(C(F)(F)F)c2)O1)NCc1ccccc1
→ -2.2, i
[49] Cc1ccc(S(=O)(=O)N(C)C[C@@H]2Oc3ccc(NS(=O)(=O)c4cccs4)cc3C(=O)N([C@@H](C)CO)C[C@H]2C)cc1
→ 2.7, i
[50] O=S(=O)(c1ccc(F)cc1)N1CCCCN2[C@H](CO)[C@H](c3ccc(C4=CCCCC4)cc3)[C@H]2C1
→ 5.7, i
[51] CO[C@@H]1CN(C)C(=O)c2ccc(NS(=O)(=O)c3cccc(F)c3)cc2OC[C@@H](C)N(C(=O)Cc2cccnc2)C[C@@H]1C
→ 0.1, i
[52] COc1ccc2c3c(n(C)c2c1)[C@@H](CO)N(C(=O)C1CCCC1)CC31CN(C(=O)CC2CC2)C1
→ 1.7, i
[53] C[C@H]1CN([C@@H](C)CO)C(=O)c2cc(NC(=O)Cn3cnnn3)ccc2O[C@H]1CN(C)Cc1ccc(C(F)(F)F)cc1
→ -1.0, i
[54] CCC(=O)N1CC2(CN(Cc3ccncc3)C2)c2c(n(C)c3cc(OC)ccc23)[C@@H]1CO
→ 6.9, i
[55] O=C(N[C@H]1CC[C@H](CCn2cc(-c3ccccc3)nn2)O[C@H]1CO)c1ccccc1F
→ -0.2, i
[56] O=C(C[C@H]1C=C[C@H](NC(=O)c2ccccc2)[C@H](CO)O1)NCc1ccncn1
→ -1.3, i
[57] Cc1noc(C)c1NC(=O)Nc1ccc2c(c1)C(=O)N([C@H](C)CO)C[C@H](C)[C@@H](CN(C)S(=O)(=O)c1ccc(Cl)cc1)O2
→ -4.2, i
[58] CCC(=O)Nc1ccc2c(c1)OC[C@@H](C)N(C(=O)C1CCC1)C[C@H](C)[C@H](OC)CN(C)C2=O
→ -1.3, i
[59] COC(=O)C[C@H]1CC[C@H]2[C@H](COc3ccc(NS(=O)(=O)c4ccc(F)cc4)cc3C(=O)N2C)O1
→ -0.5, i
[60] CNC[C@@H]1Oc2ccc(NS(=O)(=O)c3ccc(Cl)cc3)cc2CC(=O)N([C@@H](C)CO)C[C@@H]1C
→ -3.2, i

Following part.
Below each SMILES: AF4-AF9 inh, FGF22 binding
[61] C[C@H]1CN([C@@H](C)CO)C(=O)c2cc(NC(=O)Nc3ccccc3)ccc2O[C@@H]1CN(C)C(=O)Nc1ccc(C(F)(F)F)cc1
→ -0.3, i
[62] O=C(C[C@@H]1C[C@H]2c3cc(NC(=O)C4CCC4)ccc3O[C@H]2[C@@H](CO)O1)NCc1ccc2c(c1)OCO2
→ 1.0, i
[63] COc1cccc(-c2cn(CC[C@H]3CC[C@@H](NS(=O)(=O)Cc4ccccc4)[C@@H](CO)O3)nn2)c1
→ 0.1, i
[64] Cn1cnc(CCNC(=O)C[C@@H]2CC[C@H]3[C@@H](COC[C@@H](O)CN3C(=O)Nc3ccc(Cl)cc3)O2)c1
→ 0.5, i
[65] O=C(CC1CC1)N1CC2(C1)[C@@H](c1ccccc1)[C@@H](CO)N2Cc1cccc(F)c1
→ -0.5, i
[66] CN1C(=O)c2cc(NC(=O)c3ccc(F)cc3)ccc2OC[C@H]2O[C@@H](CC(=O)O)CC[C@H]21
→ -0.9, i
[67] CO[C@H]1CN(C)C(=O)c2ccc(NC(=O)C3CCOCC3)cc2OC[C@H](C)N(C(C)=O)C[C@@H]1C
→ -1.7, i
[68] CC(=O)N[C@@H]1C=C[C@@H](CC(=O)NCc2ccc(Cl)cc2)O[C@H]1CO
→ -1.0, i
[69] COCC#Cc1ccc2c(c1)O[C@H](CN(C)CC1CCOCC1)[C@@H](C)CN([C@H](C)CO)S2(=O)=O
→ -3.6, i
[70] CCC(=O)Nc1ccc2c(c1)C(=O)N(C)[C@H]1CC[C@@H](CC(=O)NCC3CC3)O[C@@H]1CO2
→ -2.8, i
[71] O=S(=O)(N[C@H]1CC[C@@H](CCn2cc(-c3cccc(F)c3)nn2)O[C@H]1CO)c1ccc(F)cc1
→ -0.8, i
[72] Cn1cnc(S(=O)(=O)N2CCCCN3[C@@H](CO)[C@@H](c4ccc(-c5ccc(F)cc5)cc4)[C@@H]3C2)c1
→ 4.1, i
[73] O=C(c1ccccc1)N1CC[C@@H]2[C@H](CO)Nc3ccc(-c4ccccc4F)cc3[C@@H]21
→ -3.5, i
[74] COc1ccc(NC(=O)N(C)C[C@H]2Oc3ccc(NC(=O)CCCCCC(=O)Nc4ccccc4N)cc3CC(=O)N([C@H](C)CO)C[C@H]2C)cc1
→ -0.5, i
[75] C[C@@H]1CN([C@@H](C)CO)C(=O)c2cccc(NC(=O)c3ccc(-c4nccs4)cc3)c2O[C@H]1CN(C)S(=O)(=O)c1ccccc1
→ 2.3, i
[76] C[C@H](CO)N1C[C@H](C)[C@@H](CN(C)S(=O)(=O)c2ccc(F)cc2)Oc2c(NC(=O)c3nc4ccccc4s3)cccc2C1=O
→ -1.2, i
[77] CC(C)NC(=O)N[C@@H]1C=C[C@@H](CC(=O)O)O[C@H]1CO
→ -1.0, i
[78] CCCN1C[C@H](C)[C@H](OC)CN(C)C(=O)c2cc(NC(=O)Nc3ccccc3F)ccc2OC[C@@H]1C
→ -9.3, i
[79] C[C@@H]1CN([C@H](C)CO)C(=O)c2ccccc2-c2ccccc2CO[C@@H]1CN(C)S(=O)(=O)c1ccc(F)cc1
→ -1.5, i
